Screens from PubChem BioAssay.
Mtb hypoxia rep: PubChem AID 1159583. M. tuberculosis hypoxia-regulated fluorescent reporter, fluorescence. hit rate 0.1% among 300,000. fluorescence inhibition, % (test concentration not listed);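 active = 35 to 45% if threefold the growth effect, above 45% if 1.5-fold the growth effect; inactive = the rest, general growth blockers included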;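 also: wells of about 50 µL received 100 nL stock; 0% = vehicle wells and 100% = reference inhibitor wells; whole bacteria with a GFP reporter of the hypoxia response; strong numbers were not always called active; many hits fall short of the cut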
PrP UTR inh: inhibition of PrP 5' UTR reporter expression; cell-based PrP 5' UTR mRNA reporter, plate reader; inhibition, % (test concentration not listed); hit rate 0.35% among 340,000; AID 488862, 2010;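 active = every replicate at 50% or more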;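 also: 0 = median of the neutral control wells; tested in H4 reporter cells; numbers are from one replicate; inactives centre near -14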
Autofluor counter: counter-screen for toxin protease inhibitors: compound fluorescence; hit rate 3.1% among 360,000; compound autofluorescence counterscreen, microsphere flow cytometry; active compounds read high; fluorescence intensity (test concentration not listed);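 active = at least 3 SD above the mean of all compounds, about 16000 in these data; inconclusive = too few beads counted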;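 also: 100 nL of 1 mM stock went into each well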
ugtP null kill: growth inhibition of ugtP-null S. aureus, primary screen, RN4220 ugtP deletion, OD600 | growth inhibition, % (no concentration beside the values) | 16 h; some inactives read as strong as hits | hit rate 0.54% among 330,000;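 active = z-score under -3 and OD600 up to 0.15 on both plates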;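 also: plate controls were untreated wells for no effect and antibiotic for full effect; wells of about 80 µL received 100 nL stock; the first replicate is given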
RN4220 kill: growth inhibition of S. aureus RN4220, primary screen, OD600; 16 h; inhibition, % (test concentration not listed); hit rate 0.33% among 330,000;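 active = z-score of -3 or lower and OD600 up to 0.18 on both plates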;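 also: plate controls were untreated cells for no effect and reference antibiotic for full effect; stock transfer was 100 nL into about 80 µL; one replicate is shown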
BJeLR viability: MLPCN primary cell-based screen for lethality selective to Ras in HRASV12 cells | BJeLR (HRASV12) viability, CellTiter-Glo ATP luminescence, 48 h; reference of the scale not given here | inhibition, % (no concentration beside the values) | hit rate 0.17% among 300,000;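 active = replicate mean above 50%; inconclusive = above 50% but judged a plate artefact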;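 also: 50 nL library stock added to about 25 µL; numbers are from one replicate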
Mtb hypoxia rep growth: further read-out of Mtb hypoxia rep, marked with its call; growth inhibition, %; measured here: M. tuberculosis growth (absorbance);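 0% = vehicle and 100% = reference antibiotic; read after six days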
Numbers without * were called inactive.

How did COc1cccc(C(c2ccccc2)N2C3CCC2CN(S(=O)(=O)c2ccc(F)cc2)CC3)c1 (stereo not given) do in these assays?
Mtb hypoxia rep: -5.4; PrP UTR inh: -10.5; Autofluor counter: inconclusive; ugtP null kill: 2.0; RN4220 kill: -6.6; BJeLR viability: 4.8; Mtb hypoxia rep growth: -3.4

How did CN1C(=O)c2oc3ccccc3c(=O)c2C1c1ccncc1 (stereo not given) do in these assays?
PrP UTR inh: -1.9; Autofluor counter: 2587; ugtP null kill: 0.5; RN4220 kill: 1.5; BJeLR viability: 4.3

Results for CCN(CC)C(=O)c1ccc(-c2nnc(Nc3ccc(C(=O)NC)cc3)c3ccccc23)cc1 ?
Mtb hypoxia rep: 1.9; PrP UTR inh: -26.9; Autofluor counter: 3817; ugtP null kill: -1.1; RN4220 kill: 1.8; BJeLR viability: -6.9; Mtb hypoxia rep growth: 1.0

What do the screens show for `CC(C)CC(N)c1cn([C@@H](CCC(=O)O)C(=O)N2CCNCC2)nn1` (stereo not given in full)?
PrP UTR inh: -20.2; Autofluor counter: 3930; BJeLR viability: -8.8

What do the screens show for `Cn1cccc1/C=C1\SC(=Nc2ccccc2)NC1=O`?
Mtb hypoxia rep: 1.6; PrP UTR inh: -71.5; Autofluor counter: 3910; ugtP null kill: -11.6; RN4220 kill: 3.6; BJeLR viability: 28.7; Mtb hypoxia rep growth: -1.2

How did Cn1ccc(NC(=O)c2ccc(Cl)cc2Cl)n1 do in these assays?
Mtb hypoxia rep: 6.9; PrP UTR inh: -49.2; Autofluor counter: 4558; ugtP null kill: 2.9; RN4220 kill: 1.0; Mtb hypoxia rep growth: -3.1

Results for COc1cc(/C=N/NC(=O)C(N)=O)cc(OC)c1O ?
PrP UTR inh: -9.4; Autofluor counter: 3207; BJeLR viability: 12.8

Results for COC(=O)c1ccc(-c2ccc(C=NNC(=O)Cc3nnc(N)s3)o2)cc1 ?
Mtb hypoxia rep: 0.4; ugtP null kill: 4.4; RN4220 kill: 4.9; Mtb hypoxia rep growth: 0.0

Results for O=C(CSc1ccc2ccccc2n1)NCCC1=CCCCC1 ?
Mtb hypoxia rep: 0.6; PrP UTR inh: -8.0; Autofluor counter: 2327; ugtP null kill: -8.4; RN4220 kill: 0.2; BJeLR viability: -3.9; Mtb hypoxia rep growth: -1.2

What do the screens show for `O=C(CSc1nnc(-c2ccco2)n1-c1ccccc1)N1CCN(C(=O)c2ccco2)CC1`?
Mtb hypoxia rep: 5.8; PrP UTR inh: 0.4; Autofluor counter: 4428; ugtP null kill: 5.9; RN4220 kill: -0.9; BJeLR viability: 2.3; Mtb hypoxia rep growth: 4.6

In the list so far, 2 have a halogen:
How did COc1cccc(C(c2ccccc2)N2C3CCC2CN(S(=O)(=O)c2ccc(F)cc2)CC3)c1 (stereo not given) do in these assays?
Mtb hypoxia rep: -5.4; PrP UTR inh: -10.5; Autofluor counter: inconclusive; ugtP null kill: 2.0; RN4220 kill: -6.6; BJeLR viability: 4.8; Mtb hypoxia rep growth: -3.4

How did Cn1ccc(NC(=O)c2ccc(Cl)cc2Cl)n1 do in these assays?
Mtb hypoxia rep: 6.9; PrP UTR inh: -49.2; Autofluor counter: 4558; ugtP null kill: 2.9; RN4220 kill: 1.0; Mtb hypoxia rep growth: -3.1

Carrying on:
Results for CCn1ccc(C(=O)Oc2ccc(C(C)C)cc2)n1 ?
Mtb hypoxia rep: -7.9; PrP UTR inh: -15.1; Autofluor counter: 8136; ugtP null kill: 0.9; RN4220 kill: 0.5; BJeLR viability: 6.3; Mtb hypoxia rep growth: -9.1

How did CCC(CO)Oc1cc(NCc2ccccc2O)c2ncn(C(C)C)c2c1 (stereo not given) do in these assays?
Mtb hypoxia rep: 1.9; PrP UTR inh: -34.0; Autofluor counter: 3620; ugtP null kill: -15.4; RN4220 kill: 6.0; Mtb hypoxia rep growth: 7.2

Results for CCc1c(C)nc(N)n2c(SCC(=O)N3CCCC(C)C3)nnc12 (stereo not given) ?
Mtb hypoxia rep: -14.2; PrP UTR inh: -15.8; Autofluor counter: 10733; ugtP null kill: -8.4; RN4220 kill: -3.5; BJeLR viability: -3.5; Mtb hypoxia rep growth: 2.9

What do the screens show for `Cc1ccc(C(=O)NN=Cc2cccc(OC(=O)c3cccc(F)c3)c2)cn1`?
Mtb hypoxia rep: 11.9; ugtP null kill: -1.7; RN4220 kill: 9.2; Mtb hypoxia rep growth: 8.1

Results for CCOC(=O)Cn1c(=O)c(-c2ccccc2NCc2ccccc2)nc2ccccc21 ?
Mtb hypoxia rep: -0.3; PrP UTR inh: -9.3; Autofluor counter: 10340; ugtP null kill: 7.5; RN4220 kill: -3.1; BJeLR viability: -7.5; Mtb hypoxia rep growth: -7.9

How did CN(CC(=O)NCc1ccco1)CC(=O)Nc1ccc(F)c(F)c1F do in these assays?
Mtb hypoxia rep: 9.4; PrP UTR inh: -32.8; Autofluor counter: 3654; ugtP null kill: 4.5; RN4220 kill: 4.2; Mtb hypoxia rep growth: 4.3

What do the screens show for `COC(=O)c1[nH]c(C)c(/C(O)=C2\C(=O)C(=O)N(CCN(C)C)C2c2cccs2)c1C` (stereo not given)?
Mtb hypoxia rep: 1.6; PrP UTR inh: -11.6; Autofluor counter: 20496*; ugtP null kill: -0.2; RN4220 kill: 5.6; BJeLR viability: -4.2; Mtb hypoxia rep growth: 9.0

How did CCOC(=O)Cn1c(=O)cc(C)c2cccc(C)c21 do in these assays?
Mtb hypoxia rep: 12.2; PrP UTR inh: -17.4; Autofluor counter: 4394; ugtP null kill: 26.9; RN4220 kill: 3.8; BJeLR viability: 2.0; Mtb hypoxia rep growth: 7.4

How did Cc1noc(C)c1S(=O)(=O)Nc1ccc(C(=O)O)cc1 do in these assays?
PrP UTR inh: -15.2; Autofluor counter: 2752; ugtP null kill: -2.5; RN4220 kill: -1.1; BJeLR viability: -1.7

Results for CCOC(=O)CNC(=O)CSc1nc(Cc2cccs2)nc2ccccc12 ?
Mtb hypoxia rep: -8.4; PrP UTR inh: -12.5; Autofluor counter: 8800; ugtP null kill: -6.8; RN4220 kill: -2.8; BJeLR viability: -2.7; Mtb hypoxia rep growth: -3.8

What do the screens show for `Cc1ccc(Nc2cc(C)nn2-c2nc(C)cc(=O)[nH]2)cc1`?
Mtb hypoxia rep: 19.9; PrP UTR inh: 28.5; Autofluor counter: 3401; ugtP null kill: 99.1*; RN4220 kill: 97.6*; BJeLR viability: 39.7; Mtb hypoxia rep growth: 0.4

How did COc1ccc(C2C(C(=O)N3CCCCC3)c3ccccc3C(=O)N2C)cc1 (stereo not given) do in these assays?
Mtb hypoxia rep: 1.0; PrP UTR inh: -26.0; Autofluor counter: 6609; ugtP null kill: 4.5; RN4220 kill: 0.9; BJeLR viability: 3.3; Mtb hypoxia rep growth: -2.7

What do the screens show for `COc1cccc(CC(=O)OCC(=O)NC2(C#N)CCCC2)c1`?
Mtb hypoxia rep: 10.8; PrP UTR inh: 0.0; Autofluor counter: 3017; ugtP null kill: 4.6; RN4220 kill: 3.5; Mtb hypoxia rep growth: 3.9

How did O=C(CNC(=O)c1ccc(Cl)cc1)OCC(=O)c1ccccc1 do in these assays?
Mtb hypoxia rep: -6.5; PrP UTR inh: -9.1; Autofluor counter: inconclusive; ugtP null kill: 6.0; RN4220 kill: 3.0; BJeLR viability: -4.5; Mtb hypoxia rep growth: -6.8

How did CCCc1cc(C(=O)N2CCN(C(c3ccccc3)c3ccccc3)CC2)no1 do in these assays?
Mtb hypoxia rep: 5.6; PrP UTR inh: -31.4; Autofluor counter: 5879; ugtP null kill: 3.3; RN4220 kill: -7.5; BJeLR viability: -3.8; Mtb hypoxia rep growth: -0.4

Results for CC(CC(=O)N1CCN(S(=O)(=O)c2ccc(Cl)cc2)CC1)n1cncn1 (stereo not given) ?
Mtb hypoxia rep: 6.6; PrP UTR inh: -19.4; Autofluor counter: 3336; ugtP null kill: 2.6; RN4220 kill: 1.4; BJeLR viability: 6.5; Mtb hypoxia rep growth: 1.0

What do the screens show for `CC(C)C(=O)Nc1ccc(Oc2ccc3c(c2)C(=O)NC3=O)cc1`?
Mtb hypoxia rep: 14.9; PrP UTR inh: -18.8; Autofluor counter: 3516; ugtP null kill: 7.3; RN4220 kill: 8.7; BJeLR viability: -1.1; Mtb hypoxia rep growth: 3.7

Results for CC1(C)OCC(COC(=O)Nc2cccnc2)([N+](=O)[O-])CO1 ?
Mtb hypoxia rep: -4.1; PrP UTR inh: -29.3; Autofluor counter: 4010; ugtP null kill: 4.3; RN4220 kill: 6.5; BJeLR viability: 3.9; Mtb hypoxia rep growth: 11.7

How did Nc1ccc(Cl)c(-c2nc3ncccc3o2)c1 do in these assays?
Mtb hypoxia rep: -2.2; PrP UTR inh: -22.8; Autofluor counter: 2951; ugtP null kill: 1.8; RN4220 kill: 10.5; BJeLR viability: -1.4; Mtb hypoxia rep growth: 0.8

How did CC(=O)c1ccc(NS(=O)(=O)c2cc(-c3cnc(C4CC4)o3)ccc2C)cc1 do in these assays?
Mtb hypoxia rep: 10.2; PrP UTR inh: -28.7; Autofluor counter: 6104; ugtP null kill: -15.3; RN4220 kill: 11.1; BJeLR viability: 6.8; Mtb hypoxia rep growth: 2.4

Taken from the results shown, 2 compounds:
What do the screens show for `Cc1ccc(Nc2cc(C)nn2-c2nc(C)cc(=O)[nH]2)cc1`?
Mtb hypoxia rep: 19.9; PrP UTR inh: 28.5; Autofluor counter: 3401; ugtP null kill: 99.1*; RN4220 kill: 97.6*; BJeLR viability: 39.7; Mtb hypoxia rep growth: 0.4

How did COc1ccc(C2C(C(=O)N3CCCCC3)c3ccccc3C(=O)N2C)cc1 (stereo not given) do in these assays?
Mtb hypoxia rep: 1.0; PrP UTR inh: -26.0; Autofluor counter: 6609; ugtP null kill: 4.5; RN4220 kill: 0.9; BJeLR viability: 3.3; Mtb hypoxia rep growth: -2.7

(more compounds)
How did Cc1ccc(S(=O)(=O)n2cnc(C)c2)cc1 do in these assays?
Mtb hypoxia rep: 2.0; PrP UTR inh: -49.6; Autofluor counter: 3254; ugtP null kill: 5.8; RN4220 kill: 2.3; BJeLR viability: -12.6; Mtb hypoxia rep growth: 1.0

What do the screens show for `O=C(CCN1C(=O)COc2ccccc21)NCCN1CCN(c2cccc(Cl)c2)CC1`?
Mtb hypoxia rep: 5.0; PrP UTR inh: -30.8; Autofluor counter: 6069; ugtP null kill: 4.6; RN4220 kill: 2.7; BJeLR viability: -5.0; Mtb hypoxia rep growth: 5.3

Results for Cc1nn(-c2ccccc2)c(Cl)c1/C=N\NC(=O)c1cncc(Br)c1 ?
PrP UTR inh: -17.5; Autofluor counter: 9962; BJeLR viability: -8.9

How did N#CCCN(Cc1cccnc1)C(=O)c1ccc(S(=O)(=O)N2CCOCC2)cc1 do in these assays?
PrP UTR inh: -17.9; Autofluor counter: 2180; ugtP null kill: 0.6; RN4220 kill: 0.3; BJeLR viability: -9.6

What do the screens show for `O=C(NCCc1ccc(Cl)cc1)c1ccc(OCC2CCCO2)cc1` (stereo not given)?
Mtb hypoxia rep: -1.4; PrP UTR inh: -23.1; Autofluor counter: 5472; ugtP null kill: -3.0; RN4220 kill: 2.1; BJeLR viability: 6.8; Mtb hypoxia rep growth: 4.6

Results for COc1cccc(C(=O)Nc2ccc3[nH]ncc3c2)c1OC ?
Mtb hypoxia rep: 0.5; PrP UTR inh: -43.5; Autofluor counter: 3908; ugtP null kill: 10.4; RN4220 kill: -3.2; BJeLR viability: 0.0; Mtb hypoxia rep growth: -1.1

Results for Nc1cc(N)cc(C(=O)Nc2ccc3c(c2)C(=O)NC3=O)c1 ?
Mtb hypoxia rep: 4.6; PrP UTR inh: -15.3; Autofluor counter: 3379; ugtP null kill: 2.1; RN4220 kill: -0.9; BJeLR viability: 2.7; Mtb hypoxia rep growth: -10.6

Results for O=C(NCc1cccc(Cl)c1)c1ccc2ccccc2n1 ?
Mtb hypoxia rep: 0.9; PrP UTR inh: -31.0; Autofluor counter: 5775; ugtP null kill: 0.7; RN4220 kill: 3.9; BJeLR viability: -11.0; Mtb hypoxia rep growth: -3.8

What do the screens show for `O=c1c2cc(N3CCOCC3)ccc2[nH]c(=S)n1Cc1ccco1`?
Mtb hypoxia rep: 6.1; PrP UTR inh: -31.9; Autofluor counter: inconclusive; ugtP null kill: -8.5; RN4220 kill: -0.1; BJeLR viability: 0.0; Mtb hypoxia rep growth: 10.4

How did COc1cc(C(=O)NN=Cc2coc3ccc(Cl)cc3c2=O)ccc1O do in these assays?
Mtb hypoxia rep: -3.6; ugtP null kill: 7.8; RN4220 kill: 2.1; Mtb hypoxia rep growth: -2.4
